# CSC inhib: cancer stem cell inhibition; cancer stem cell-like cells viability, luminescence; inhibition, % at 7.5 µM; 300,000 compounds, 1.1% hits; AID 2717;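 active = mean at 75% or more and at least half the replicates too; inconclusive = mean and replicates disagree; tested in HMLE shEcad cells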;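 also: 0% = median of negative and 100% = median of positive control wells; the first replicate is given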
# UUG fidelity: alters start codon recognition fidelity in yeast; AID 602363; activity score, % at 18.7 µM; 350,000 compounds, 0.13% hits; S. cerevisiae UUG-firefly luciferase reporter, luminescence/redox ratio;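 active = replicate mean at a twofold rise or more, about +100% in these data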;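 also: firefly luciferase made from a UUG start codon reports start codon fidelity; reporter light over untreated wells divided by growth signal over untreated wells; some hits fall short of that in this replicate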
# HIV Env fusion: HIV envelope-mediated fusion inhibition | HeLa-JRFL Env/CEM21 cell fusion, luciferase | inhibition, % at 12.3 µM | 360,000 compounds, 1.1% hits | AID 651610;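 active = mean replicate inhibition score of at least 50 and every replicate individually at or above 50; inconclusive = only one of the two criteria met; inactive = mean below 50 and not all replicates reaching 50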;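 also: 0% = plate neutral controls and 100% = maraviroc near 300 nM; one replicate is shown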
# Rce1 inh: yeast Ras-converting enzyme inhibition | yeast membranes, quenched prenylated peptide cleavage fluorescence | calls only | 290,000 compounds, 0.27% hits | AID 2563;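 active = fall in fluorescence gain of 50% or more versus controls, with final raw signal at or below 3038400; inconclusive = same 50% fall but final raw signal above 3038400; inactive = fall in fluorescence gain under 50%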;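 also: plate controls were neutral control wells for no effect and wells lacking membranes for full effect; tested at 10 µM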
# Target sequence (Q03530 whole entry, looked up): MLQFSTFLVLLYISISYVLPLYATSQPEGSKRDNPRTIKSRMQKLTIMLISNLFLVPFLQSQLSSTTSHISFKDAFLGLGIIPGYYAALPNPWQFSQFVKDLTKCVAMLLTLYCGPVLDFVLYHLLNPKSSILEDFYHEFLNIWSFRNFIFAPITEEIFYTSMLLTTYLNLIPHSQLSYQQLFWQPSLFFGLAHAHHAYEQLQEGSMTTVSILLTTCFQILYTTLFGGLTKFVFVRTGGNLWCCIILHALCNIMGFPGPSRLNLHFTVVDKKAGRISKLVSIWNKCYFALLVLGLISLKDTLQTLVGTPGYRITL
# eIF4H FP inh: inhibitors of RNA binding by human eIF4H. inhibition, % at 35 µM. eIF4H fluorescence polarization binding assay. 290,000 compounds, 0.94% hits. Q15056;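 active = 50% or more with normal probe brightness, or confirmed in later tests; inconclusive = above 50% with abnormal brightness, or retests that disagree; inactive = below 50% or failed in later tests; about a fifth of its hits are not listed in these tables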;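 also: calls also rest on retests at 20 µM and on dose response follow-up; 0% = protein and probe with vehicle and 100% = probe without protein; strong numbers were not always called active; many hits fall short of the cut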
# MT1-MMP act inh: blocks activation of human MT1-MMP; HT1080 RFP-PRO-GFP cells, GFP/RFP ratio fluorescence, overnight; percent of plate control window, DMSO zero; GFP/RFP ratio change, % at 20 µM; 360,000 compounds, 0.061% hits; AID 651647;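 active = GFP/RFP ratio change of at least 30% with cell ATP level not reduced by more than half and red fluorescence within 50% of control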; also: strong numbers were not always called active
#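 Material: RFP-PRO-GFP reporter HT1080 cells. Dosing: single-point 20 µM compound, 1% DMSO. Controls: DMSO and RFP-L50D-GFP cell wells. Timing: cells overnight before dosing, compound overnight, 37 °C, 5% CO2. Measure: GFP/RFP fluorescence ratio.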
# PABP FP inh: blocks human PABP binding to poly(A) RNA. 290,000 compounds, 1% hits. fluorescence polarization. P11940. inhibition, % at 35 µM;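 active = 50% or more with normal probe brightness, or confirmed in later tests; inconclusive = above 50% with abnormal brightness, or retests that disagree; inactive = below 50% or failed in later tests; about a fifth of its hits are not listed in these tables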;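 also: calls also rest on retests at 20 µM and on dose response follow-up; controls were probe without protein and protein plus probe with vehicle; some compounds called inactive have numbers as strong as hits; many hits fall short of the cut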
# eIF4H FP inh retest: recorded beside eIF4H FP inh, whose call it bears; inhibition, %; compound at 20 µM; confirmation average;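 mean of two retest wells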
# PABP FP inh retest: further read-out of PABP FP inh, marked with its call; inhibition, %; compound at 20 µM; confirmation repeats;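 mean of two retest wells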
# MT1-MMP act inh RFP: also measured in MT1-MMP act inh; calls as there; RFP signal change, %; measured here: RFP expression control read;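 0 = vehicle wells; hits needed this value within 50% of zero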
# An asterisk follows results filed as active; i = inactive; ? = inconclusive; · = not tested or not shown.
SMILES,CSC inhib,UUG fidelity,HIV Env fusion,Rce1 inh,eIF4H FP inh,MT1-MMP act inh,MT1-MMP act inh RFP,PABP FP inh,others
CC(C)C[C@@H](C(=O)NC1CCN(Cc2ccccc2)CC1)N1C(=O)N2CCc3c([nH]c4ccccc34)[C@@]2(C)C1=O,12,-2,·,i,-1,-2,-11,-2,
Cc1ccn2c(C(=O)N/N=C\c3ccccc3[N+](=O)[O-])c(C)nc2c1,9,-18,-38,i,·,-6,0,·,
O=C(CCCN1C(=O)/C(=C/c2cccc(Br)c2)SC1=S)NCCCN1CCOCC1,-5,-7,-5,i,-10,5,6,1,
C=Cc1ccc(Cn2nc(-c3ccc(C)cc3)ccc2=O)cc1,23,-14,-14,i,12,2,2,5,
CN1CCCN(Cc2nc(-c3ccc(Cl)cc3)no2)CC1,51,-16,-18,i,0,-2,-1,-6,
CC(C)CC1NC(=O)N(CC(=O)N2CCCc3ccccc32)C1=O (stereo not drawn),-7,·,11,i,-4,2,1,-7,
Cc1nn(C)cc1CNC(=O)C1(C)CC1(Cl)Cl (stereo not drawn),0,-18,-10,i,-2,4,2,-11,
C=Cc1ccc(C(=O)N2CCCC(Nc3ccc4c(c3)OCCO4)C2)cc1 (stereo not drawn),·,-12,-27,i,0,-4,-7,-7,
COc1ccc2c(c1)C(C1=C(O)CC(C)(C)CC1=O)C1=C(CC(C)(C)CC1=O)O2 (stereo not drawn),6,-12,-14,i,-12,0,6,-11,
COC(=O)C1Cc2c([nH]c3ccccc23)CN1 (stereo not drawn),·,-5,-9,i,5,0,-3,13,
CC(=O)O/C(=C\c1cn(C(C)=O)c2ccccc12)C(=O)O,·,-14,3,i,7,10,4,4,
CC(=O)N1CCC(=NNc2ccc(S(=O)(=O)N3CCOCC3)cc2[N+](=O)[O-])CC1,-8,10,5,i,1,4,7,-3,
CCn1c(=O)c(=O)[nH]c2cc(C(=O)N(C)Cc3ccc(OC)c(F)c3)ccc21,-4,-23,0,i,-2,4,5,6,
CN(C)C(CNC(=O)c1cccc(S(=O)(=O)N2CCc3ccccc3C2)c1)c1ccccc1 (stereo not drawn),·,-7,-80,·,·,-1,4,·,
O=C(Nc1ccccc1Br)C1CCN(C(=O)Cc2ccccc2)CC1,-3,-8,7,i,5,6,4,3,
Cc1ccc(NC(=O)/C(C#N)=C/c2cccs2)c(C)c1,-7,·,·,i,-12,-6,1,18,
O=C(COc1ccc(Br)cc1)NCCCNC(=O)c1cnccn1,-8,-12,1,i,-9,2,0,12,
CC1(C)Nc2ccccc2N(CC(=O)N2CCCCC2)C1=O,-11,·,·,i,-4,-1,4,-5,
CCOC(=O)C(=O)NCc1ccc(/C=C2/N=C(C)C(C(=O)OCC)=C2O)o1,-14,·,-2,i,?,-15,6,?,
CC(OC(=O)/C=C/c1ccccc1)C(=O)NC1CCCCC1C (stereo not drawn),-15,2,·,·,·,16,-2,·,
N#Cc1nc(-c2ccccc2F)oc1NCCc1ccccc1,5,-17,-117,i,-2,1,-8,11,
CCOC(=O)CCc1c(C(=O)OCC)[nH]c(CC)c1C(=O)OCc1ccccc1,12,-18,?,i,3,-26,-24,2,
CCCCC(=O)NC(c1ccc(C(C)C)cc1)c1ccc2cccnc2c1O (stereo not drawn),·,-5,-91,i,18,-12,-21,5,
Cc1cc([N+](=O)[O-])nn1CCCC(=O)NC(C)c1ccccc1 (stereo not drawn),·,-12,-17,i,4,-1,6,0,
Cc1oncc1-c1csc(-c2ccccc2)n1,-9,·,-62,i,0,0,-2,1,
COC(=O)c1ccc(C(=O)OC)c(=O)[nH]1,-19,-16,-9,i,1,-1,1,17,
CCC(C)(C)n1nnnc1C(c1cc2cc(C)ccc2[nH]c1=O)N1CCCc2ccccc21 (stereo not drawn),-6,13,·,i,0,-7,6,63,eIF4H FP inh retest=6;PABP FP inh retest=-1
O=C(O)c1ccc(CSc2nnc(-c3cccnc3)n2-c2ccc(Br)cc2)cc1,0,·,-25,i,10,0,3,4,
COc1cc(C2=NOC(C(=O)N3CCCCCC3)C2)cc(OC)c1OC (stereo not drawn),1,7,-42,i,-2,-6,-3,3,
c1ccc(COc2nsnc2N2CCOCC2)cc1,-14,-14,-10,i,-4,2,0,-5,
CON/C=C(\C=Nc1ccc(C(F)(F)F)cc1)c1ncc(C(F)(F)F)cc1Cl,4,-20,-13,i,0,-6,5,-3,
COC(=O)c1oc2ccc(Br)cc2c1NC(=O)CCCN1C(=O)c2ccccc2C1=O,-3,-11,-2,i,-1,5,-5,1,
COc1cccc(Cn2nnc(C(=O)Nc3ccc(C)cc3)c2N)c1,17,-13,-24,i,-9,3,1,3,
CC1(C)C2CCC1(C)C(OC(=O)CC(=O)O)C2 (stereo not drawn),62,·,·,i,1,·,·,10,
COc1ccc2c(c1)-c1c(sn(-c3ccccc3)c1=S)C(C)(C)N2,-7,·,22,i,-6,-3,-7,4,
O=C(c1ccc(OC2CCN(C(=O)C3CC3)CC2)cc1)N(CCO)Cc1ccccc1,·,·,15,i,-1,-2,-2,-2,
Cn1c(N)c(C(=O)COC(=O)CNC(=O)c2ccc(Cl)cc2Cl)c(=O)n(C)c1=O,·,-16,5,·,·,3,4,·,
O=C(CSc1nnc(-c2ccc(Br)cc2)n1CCc1ccccc1)NC1CCS(=O)(=O)C1 (stereo not drawn),-1,·,-31,i,-3,-3,-6,0,
COc1ccc(-c2nc(=S)c3c(n2CCN2CCOCC2)CC(C)(C)OC3)cc1,-1,-26,·,i,-6,2,5,2,
O=C(N/N=C/c1cn(-c2cccs2)nc1-c1ccccc1)c1ccccc1O,23,·,0,i,7,-9,-13,-6,
CCC1=Nc2ccccc2NC2=C1C(=O)CCC2,-5,·,·,i,25,-35,7,64,eIF4H FP inh retest=-1;PABP FP inh retest=1
CC(C)C(=O)Nc1nnc(COc2ccc(Cl)cc2)s1,3,·,-14,i,1,4,0,2,
CC(Oc1ccc2ccccc2c1)C(=O)N/N=C/c1cccnc1 (stereo not drawn),·,-4,-1,i,-5,-1,1,0,
CN(c1ccccc1)S(=O)(=O)c1ccc(Cl)c(C(=O)Nc2ccc(-c3nc4ccccc4[nH]3)cc2)c1,44,·,22,i,1,0,-18,-5,
O=C(NCC1CCCO1)C1CCC(CNS(=O)(=O)c2ccccc2)CC1 (stereo not drawn),-15,-1,·,i,-12,6,8,2,

# The final 2 records of the section before open the next one.
SMILES,CSC inhib,UUG fidelity,HIV Env fusion,Rce1 inh,eIF4H FP inh,MT1-MMP act inh,MT1-MMP act inh RFP,PABP FP inh,others
CN(c1ccccc1)S(=O)(=O)c1ccc(Cl)c(C(=O)Nc2ccc(-c3nc4ccccc4[nH]3)cc2)c1,44,·,22,i,1,0,-18,-5,
O=C(NCC1CCCO1)C1CCC(CNS(=O)(=O)c2ccccc2)CC1 (stereo not drawn),-15,-1,·,i,-12,6,8,2,
Cc1cc(N)n2ncc(-c3ccc(Cl)cc3)c2n1,32,-3,-194,i,-5,1,-12,-3,
COc1ccc2c(C)cc(SCc3c(C)noc3C)nc2c1,·,0,·,i,6,-1,0,-7,
O=C(O)CCC(=O)NCc1c(Cl)cccc1Sc1ccc(Cl)cc1,-9,-15,-8,i,4,2,1,-1,
O=[N+]([O-])c1ccccc1N/N=C1\CCc2ccccc21,-8,·,-56,i,1,9,-1,-2,
Nc1cc[n+](CC(=O)Nc2ccccc2)cc1,-4,·,7,i,-6,-1,4,-4,
Cc1csc(NC(=O)CCC(=O)N(CC(=O)NC2CCCC2)Cc2ccccc2)n1,-2,-4,-5,·,-19,3,4,16,
C=CCn1c(CNC(=O)c2ccco2)nnc1SCC(=O)Nc1cccc(F)c1,0,-19,3,i,-7,-2,-1,-1,
Cc1ccc(C)c(OCC(=O)Nc2c[nH]c(=O)[nH]c2=O)c1,-7,·,57*,i,-1,5,6,4,
CCSc1ccccc1C(=O)N1CCN(Cc2ccc3c(c2)OCO3)CC1,-14,-11,11,i,-3,-5,-3,2,
CCC/C=C(\CCC)C(NC(=O)c1ccc(C(=O)OC)cc1)c1ccc(C(=O)OC)cc1 (stereo not drawn),6,·,-19,i,·,·,·,·,
O=C(NC1CCCCCC1)c1ccc2nc3cc(Cl)ccc3c(=O)n2c1,3,·,-1,i,-1,-3,-6,12,
CNC(=O)c1cc(S(=O)(=O)Nc2ccc3c(c2)OCO3)ccc1C,-15,-16,-21,i,6,1,-1,-1,
O=c1cc(-c2ccccc2)[nH]c2ccccc12,46,-13,-64,i,-3,9,-6,-5,
CN(C)c1ccc(Nc2ccc([N+](=O)[O-])cn2)cc1,-8,-4,-42,i,1,11,-1,-4,
COc1ccccc1C(=O)OCC(=O)NC(=O)NCc1ccccc1,10,·,31,i,5,2,4,2,
COc1ccc(CCNC(=O)CSc2cn(Cc3cccc(C)c3)c3ccccc23)cc1OC,11,-12,·,i,-5,2,-19,0,
COc1ccc(-c2cn3cc([N+](=O)[O-])ccc3n2)cc1OC,0,·,-36,i,4,6,0,6,
Cc1ccc(C(=O)OCC(=O)N2CCC(c3ccccc3)=N2)cc1,-4,-4,6,·,·,2,-2,·,
COc1ccc2c(c1)C(NC(=O)C(F)(F)F)CC2=O (stereo not drawn),-8,·,6,i,-10,2,4,-11,
CN(C)/C=C/C(=O)c1cc(F)cc(C(F)(F)F)c1,-7,·,9,i,-3,-2,1,-3,
COc1cccc(C(=O)NC(=S)Nc2ccccc2N2CCOCC2)c1,116*,-22,·,i,-18,-1,1,0,
Cc1cc(NC(=O)c2ccco2)ccc1NC(=O)c1ccco1,·,-14,-11,i,3,-2,4,3,
Cc1nn(CC(=O)NC2CC2)c(C)c1S(=O)(=O)NC(C)(C)C,-18,-10,-21,·,·,2,7,·,
Cc1ccc(S(=O)(=O)/N=C2\SC(CC(=O)Nc3ccc(F)cc3)C(=O)N2c2ccccc2)cc1 (stereo not drawn),5,-5,12,i,4,1,0,-2,
Cc1cc2c(cc1S(=O)(=O)N(C)c1ccccc1)n(C)c(=O)n2C,5,-7,6,i,9,5,0,-1,
O=C(CCCC(=O)N/N=C\c1ccccn1)N/N=C\c1ccccn1,-5,·,-7,i,-5,0,3,-5,
CN(C(=O)COC(=O)c1ccc(Cl)nc1)C1CCS(=O)(=O)C1 (stereo not drawn),-3,-19,11,i,-4,0,5,7,
Cc1nc2sc(C)c(C)c2c(=O)[nH]1,-4,-22,-58,i,3,1,11,0,
O=C(Nc1ccc2nc3n(c(=O)c2c1)CCCCC3)c1ccccc1[N+](=O)[O-],-9,4,3,i,-4,-3,1,3,
O=C(O)c1ccc(C2Nc3ccccc3C(=O)N2Cc2ccccc2)cc1 (stereo not drawn),5,4,0,·,5,-27,3,9,
COc1nccnc1NS(=O)(=O)c1ccc(NC(=S)NC(=O)c2ccc(F)c(F)c2)cc1,-3,·,·,i,2,-1,2,38,
COc1ccc(/C(C)=N\NS(=O)(=O)c2ccccc2)cc1OC,-5,·,12,i,-1,2,4,5,
COc1ccc(Cl)cc1C(=O)NC(=S)Nc1nc(C)cc(C)n1,-13,-25,-12,i,·,-1,-2,·,
Cc1cc(C)n(CCNC(=O)C2CCC(=O)N(CC3CCCCC3)C2)n1 (stereo not drawn),-3,-7,-11,i,-6,1,1,-8,
Cc1nc(N)nc(OCC(F)(F)C(F)F)c1Br,·,-6,i,i,-10,-1,-3,-6,

# From PubChem BioAssay

# Some of the compounds tested (hit frequency here may not be typical).
